Tgondii IFNg: inhibitors of Toxoplasma gondii growth with IFN-gamma; Toxoplasma gondii growth in IFN-gamma-treated host cells; active compounds read low; reference of the scale not given here; hit rate 3.8% among 69,000; activity change, negative = inhibition, %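 (about 20 µM by stock and volumes)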;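 active means below -70%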;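 further: host cells are HeLa cells infected with Toxoplasma gondii; parasite growth read as luciferase light; one replicate is shown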
* = called active by the depositor; i = inactive. An excerpt. The share of hits here may be higher or lower than overall.

no.	SMILES	Tgondii IFNg
1	COCC(=O)N1C[C@H](OCCCn2cccn2)[C@@H]2OCCC[C@@H]21	4
2	O=C(Cc1ccccc1)N1CCn2cc(Cn3cncn3)nc2C1	1
3	O=C(C1CCS(=O)(=O)CC1)N1CCC(c2ccnc(-c3ccccc3)c2)C1 (stereo not drawn)	-5
4	O=C(c1cn[nH]c1-n1cnnn1)N1CCCC(CCc2ccc(F)cc2)C1 (stereo not drawn)	-13
5	CC(=O)Nc1ccc(Nc2nc(-c3nnc(-c4ccccc4)o3)nc3ccccc23)cc1	47
6	CCN1CCC2(CN(C(C)=O)CC23CCN(S(=O)(=O)C2CC2)CC3)C1=O (stereo not drawn)	-53
7	CN1C(=O)c2cc(NC(=O)Cc3cccs3)ccc2OC[C@H]2O[C@H](CC(=O)NCC3CCCCC3)CC[C@H]21	5
8	COc1ccccc1C(=O)C1CCCN(Cc2coc3ccccc3c2=O)C1 (stereo not drawn)	-46
9	CC(=O)N[C@H]1C[C@@H](C(c2ccccc2)c2ccccc2)O[C@@H](C(C)C)C1	-66
10	CCNC(=O)[C@H]1CC[C@@](C)(C(=O)NCCC(=O)O)C1(C)C	-2
11	Cc1nc(Cc2ccccc2)sc1C(=O)O	2
12	O=C1NC(Cc2ccc(F)cc2)(C2CCNCC2)C(=O)N1CCc1ccncc1 (stereo not drawn)	3
13	COc1ccc(CN2CCC(n3nnc4c(=O)[nH]c(C(C)(C)C)nc43)CC2)cc1OC	-1
14	Cc1nc(-c2noc(-c3ccc(C(F)(F)F)cc3)n2)cs1	i
15	CC(C)Oc1ncnc2c1CCN(C(=O)[C@H]1CCCO1)CC2	-32
16	CCC(=O)Nc1cccc(C(=O)N2CCC(Oc3ncccn3)CC2)c1	-37
17	O=C1CCC2(C(=O)O)Sc3ccccc3N12 (stereo not drawn)	25
18	O=S(=O)(NCc1ccccc1)NC(Cn1cccn1)c1ccccc1 (stereo not drawn)	1
19	COc1cccc(N(Cc2nc(-c3cccc(C)c3)oc2C)S(=O)(=O)c2ccc(C)cc2)c1	-59
20	COc1ccc(OC)c(S(=O)(=O)N2CCc3c([nH]c4ccccc34)C2c2cccc(F)c2)c1 (stereo not drawn)	-45
21	O=C(O)C[C@@H]1C=C[C@@H](NC(=O)Nc2cc(F)ccc2F)[C@H](CO)O1	-10
22	Cc1cnccc1N1CCN(C(=O)c2cc3n(n2)CCN(C)C3)CC1	-27
23	c1cc(-c2nccn2CC2CCCOC2)c2nonc2c1 (stereo not drawn)	9
24	CCOc1ccc(C(=O)C(C)=O)c(OCC)c1	34
25	CN(C)C(=O)N1CCC(C(=O)N2CCCC(C(=O)c3ccc(C(C)(C)C)cc3)C2)CC1 (stereo not drawn)	-1

Gathered by group: those above with a halogen.
no.	SMILES	Tgondii IFNg
4	O=C(c1cn[nH]c1-n1cnnn1)N1CCCC(CCc2ccc(F)cc2)C1 (stereo not drawn)	-13
12	O=C1NC(Cc2ccc(F)cc2)(C2CCNCC2)C(=O)N1CCc1ccncc1 (stereo not drawn)	3
14	Cc1nc(-c2noc(-c3ccc(C(F)(F)F)cc3)n2)cs1	i
20	COc1ccc(OC)c(S(=O)(=O)N2CCc3c([nH]c4ccccc34)C2c2cccc(F)c2)c1 (stereo not drawn)	-45
21	O=C(O)C[C@@H]1C=C[C@@H](NC(=O)Nc2cc(F)ccc2F)[C@H](CO)O1	-10

Next section
no.	SMILES	Tgondii IFNg
26	Cc1ccc(-n2c(SCc3nc(-c4ccccc4)oc3C)nc3c(=O)[nH]cnc32)cc1	177
27	C[C@@H](NC(=O)[C@@H]1[C@@H](CO)[C@@H]2Cn3c(ccc(-c4ccccc4F)c3=O)[C@H]1N2)c1ccccc1	-1
28	CN(C)c1ccc(-c2nc3ccccn3c2NCc2ccc(F)cc2)cc1	349
29	C[C@@H]1CN([C@H](C)CO)C(=O)c2c(c3ccccc3n2C)-c2ccccc2CO[C@H]1CN(C)C(=O)NC1CCCCC1	38
30	C/C(=C\c1ccco1)CN1CCC2(CC1)C(=O)N(Cc1ccccn1)C(=O)N2CC(C)C	5
31	CCC1=NOC(CNCc2nc(-c3ccco3)no2)C1 (stereo not drawn)	5
32	COc1cc([C@@H]2Oc3c(O)cc([C@H]4Oc5cc(O)cc(O)c5C(=O)[C@@H]4O)cc3[C@H]2CO)ccc1O	2
33	Cc1ccc(CCC(=O)Nc2ccc(S(=O)(=O)Nc3onc(C)c3C)cc2)cc1	1
34	Cc1cc(C)cc(C(=O)N2CCC3(CC2)NC(=O)c2cc(Cl)ccc2N3C)c1	48
35	CN(C)CCOC(=O)c1cc2ccccc2o1	-1
36	COCC1c2c(cnn2C)CCN1C(=O)c1ccc2c(c1)OCO2 (stereo not drawn)	61
37	COc1cccc(CCn2ccnc2-c2nccn2C)c1	-40
38	CCOc1ccc(-c2nc(CN(c3ccccc3)S(=O)(=O)c3cccs3)c(C)o2)cc1OC	-46
39	CCCCc1ncc(CN2CCc3[nH]cnc3C2c2cccc(O)c2)[nH]1 (stereo not drawn)	-14
40	CNC(=O)c1cc2c(nc1NCC1CC1)CCN(Cc1ccccn1)CC2	47
41	CCSc1nc(CC(=O)NCc2cnc(C)cn2)cs1	56
42	O=C(COCC1CCCO1)N1CCN(C2CCCCC2)C(=O)C1 (stereo not drawn)	4
43	COCC#Cc1ccc([C@H]2[C@@H](C#N)N(C(=O)Cc3ccccc3)[C@@H]2CO)cc1	-2
44	Cc1ccc(C2(O)CCN(C(=O)CCn3c(C)cccc3=O)CC2)nc1	-2
45	O=C(Cn1c(=O)c(S(=O)(=O)c2ccccc2)cc2ccccc21)N1CCCC1	4
46	Cc1cnn(CCC(=O)N2CCCN(Cc3ccc(F)cc3)C(C(C)C)C2)c1 (stereo not drawn)	-5
47	COc1ccccc1C1(C)CCc2oc3ccc(Br)cc3c2-c2oc(C)cc21 (stereo not drawn)	10
48	CCn1c(=O)c(-c2nc(-c3cc(OC)cc(OC)c3)no2)c(O)c2ccccc21	14
49	O=S(=O)(c1ccccc1)N1CCN(Cc2ccc(-c3ccn[nH]3)s2)CC1	13
50	CC(NC(=O)c1ccc2ncccc2c1)c1cc(=O)[nH]c(N2CCN(C)CC2)n1 (stereo not drawn)	1

From compound 26 up to 27, copied from above:
no.	SMILES	Tgondii IFNg
26	Cc1ccc(-n2c(SCc3nc(-c4ccccc4)oc3C)nc3c(=O)[nH]cnc32)cc1	177
27	C[C@@H](NC(=O)[C@@H]1[C@@H](CO)[C@@H]2Cn3c(ccc(-c4ccccc4F)c3=O)[C@H]1N2)c1ccccc1	-1

Three records picked at random from the list so far, as already listed:
no.	SMILES	Tgondii IFNg
47	COc1ccccc1C1(C)CCc2oc3ccc(Br)cc3c2-c2oc(C)cc21 (stereo not drawn)	10
31	CCC1=NOC(CNCc2nc(-c3ccco3)no2)C1 (stereo not drawn)	5
49	O=S(=O)(c1ccccc1)N1CCN(Cc2ccc(-c3ccn[nH]3)s2)CC1	13

(continued)
no.	SMILES	Tgondii IFNg
51	N#CCN1CCC2(CC1)CC(C(=O)N1CCOCC1)c1ccccc12 (stereo not drawn)	7
52	COc1ccccc1-c1cc2c(=O)n(Cc3nc(-c4ccccc4)oc3C)ccn2n1	81
53	CCc1[nH]nc(N)c1-c1ccc(Cl)cc1	1
54	O=C(N[C@@H]1CCO[C@]2(CCN(Cc3cccc(F)c3)C2)C1)c1ccco1	-9
55	CC(=O)N1[C@@H]2Cn3c(ccc(-c4cccnc4)c3=O)[C@H]1[C@@H](C(=O)NC1Cc3ccccc3C1)[C@@H]2CO	4
56	C=CC(=O)Nc1ccc2c(c1)CCC(=O)N2CCC	-11
57	Cc1cc(=O)n2[nH]c(C3CCCN3C(=O)c3[nH]ncc3Cl)cc2n1 (stereo not drawn)	-8
58	Cc1cc2nc(C3CCN(CC(=O)N4CCCCC4)CC3)[nH]c2cc1C	19
59	CCCc1nccn1-c1cccc(N)n1	2
60	CCC(=O)N1CC2(CCN(Cc3ccccc3Cl)CC2)c2c([nH]c3cc(OC)ccc23)[C@H]1CO	89
61	CCOC(=O)c1[nH]c(=O)[nH]c1CNc1ccccc1C#N	81
62	Cc1ccc(NC2(C(=O)NCCc3nc(C)cc(C)n3)CCCC2)cc1	-4
63	CN(CCCc1ccccc1)C(=O)c1ccc(NC(=O)C2CCC2)cc1	3
64	CN(C)c1ccc(C(=O)NCc2cccnc2)cc1	-4
65	CN(CCCN1CCOCC1)Cc1cn(C)nc1-c1ccccc1F	9
66	COc1cccc(-n2c(=O)c(C(=O)Nc3ccc(F)c(Cl)c3)c(O)c3cccnc32)c1	85
67	CO[C@H]1CCN(c2ncc(F)cn2)[C@H]1Cc1ccccc1	-7
68	CCO[C@@H]1CO[C@@]2(CCCN(C(=O)C3CC=CC3)C2)C1	-2
69	CC(C)CC(=O)Nc1ccc(S(=O)(=O)N2CCC3(CC2)Nc2cc(F)ccc2-n2cccc23)cc1	-77*
70	CC(C)NC(=O)N1CCC2(CC1)COc1ccccc1S(=O)(=O)N(CC1CC1)C2	-14
71	COc1ccccc1OCC(=O)NCCc1sc(-c2ccc(Cl)cc2)nc1C	72
72	FC(F)(F)c1ccc(/C=C/c2nc(COc3ccc(CCCCn4ccnn4)cc3)co2)cc1	-55
73	C[C@H]1CCCCO[C@H](CN(C)C(=O)CCC(F)(F)F)[C@@H](C)CN([C@@H](C)CO)C(=O)c2cc(NC(=O)C3CCCCC3)ccc2O1	-9
74	CC(C)Cn1ncc2c1NC(=O)CC2c1csc(-c2ccccc2)n1 (stereo not drawn)	-99*
75	Cc1nc(CN2CCC3(C2)CN(CC2CCOCC2)C3)cs1	-2

Following part.
no.	SMILES	Tgondii IFNg
76	O=C(CCc1cc(Cl)no1)N1CCOC(C(F)(F)F)C1 (stereo not drawn)	-6
77	O=C(C1CCOCC1)N1[C@H](CO)[C@@H](c2ccccc2)C12CN(CCC(F)(F)F)C2	-41
78	COc1ccc(N2CC(NC(=O)C(=O)c3c[nH]c4ccccc34)CC2=O)cc1 (stereo not drawn)	1
79	CC1(C(=O)NCc2ccc(F)cc2F)CCN(C(=O)c2cccs2)CC1	9
80	CC(C)OCc1ncn2c1CN(C(=O)NCc1cccc(F)c1)CCC2	-1
81	COc1cc(CNC(=O)C2(C)CCN(C(=O)c3ccccc3C)CC2)cc(OC)c1	18
82	CCCCc1ccc(C(=O)CCN(C)C)cc1	-41
83	C[C@@H]1[C@@H](C(=O)NCc2ccc(F)cc2)CC=CCN1Cc1cccc2c1OCO2	7
84	CC(OC(=O)c1cccc(N2C(=O)C3C4CCC(C4)C3C2=O)c1)C(=O)c1ccccc1 (stereo not drawn)	-45
85	COc1ccc2c3c(n(C)c2c1)[C@@H](CO)N(C(C)=O)CC31CN(Cc2ccc(Cl)cc2)C1	134
86	CCn1ccnc1Cn1cnc(-c2ccccc2)c1-c1c(C)n[nH]c1C	-7
87	CCc1cccc2c1NC1(CCCC1)CC2C (stereo not drawn)	-1
88	CO[C@H]1CC[C@H]2CCOc3c(C#N)cccc3C(=O)N(C)C[C@H](OC)[C@@H](C)C(=O)N(C)C[C@@H]1O2	-9
89	Cc1ccc(NC(=O)C(=O)NCCc2sc(-c3cccc(C)c3)nc2C)cc1	-25
90	CCCn1ncc(C(=O)NCC(C)n2nc(C)cc2C)c1C (stereo not drawn)	3
91	O=C(Nc1ccccc1)c1cc2n(n1)CCN(C(=O)c1csnn1)C2	39
92	O=C(CN(C(=O)CCC(=O)Nc1ccccn1)c1ccccc1F)NCCc1ccccc1	-1
93	CC(=O)N1CCCCN2[C@H](C1)[C@H](c1ccc(-c3ccccc3)cc1)[C@@H]2CO	-21
94	COc1ccc(S(=O)(=O)NCCc2sc(-c3cccc(C)c3)nc2C)cc1	184
95	Cc1nn(C)c(=O)c2noc(/C=C/c3ccc(C(F)(F)F)cc3)c12	11
96	COc1ccc(-c2coc3cc(OC(=O)N4CCOCC4)ccc3c2=O)cc1	44
97	CCc1nnc(NC(=O)Cn2nc(-c3ccccc3OC)ccc2=O)s1	2
98	Fc1cnc(NC2COC3(CCCN(c4ncccn4)C3)C2)nc1 (stereo not drawn)	0
99	CCN(Cc1cnn(C)c1)Cc1cnn(-c2cccc(C)c2)c1	-6
100	COc1ccc(Cl)cc1NC(=O)N1CCCCC1CCn1ccnc1 (stereo not drawn)	9

Continued:
no.	SMILES	Tgondii IFNg
101	COc1ccccc1CNC(=O)CC1Nc2c3ccccc3nc(=S)n2C1=O (stereo not drawn)	16
102	N#Cc1nc(-c2ccccc2)c(-c2ccccc2)nc1C#N	38
103	O=C(c1coc(COc2ccccc2)n1)N1CCN(c2ccccc2)C(=O)C1	-2
104	O=C(Cn1ncc2c(N3CCCC3)ncnc21)Nc1ccc(Cl)cc1F	-39
105	CN(C)C(=O)c1ccc(-c2ccc([C@H]3[C@@H](C#N)N(C(=O)C4CC4)[C@@H]3CO)cc2)cc1	0
106	CC(C)N1CCC2(c3ccccc3)CCN(C)C2C1 (stereo not drawn)	65
107	Cc1noc(C)c1CN1CCC2(CCC(=O)N2CCN(C)C)CC1	-82*
108	CC(=O)N1C(C(=O)O)CSC1c1cccs1 (stereo not drawn)	10
109	COc1ccc(S(=O)(=O)N2CCC(c3nc(-c4ccccn4)cc(=O)[nH]3)C2)cc1C (stereo not drawn)	21
110	CC1=NN(C(=O)COc2ccc(C)c(C)c2)C(O)(c2ccccc2)C1 (stereo not drawn)	5
111	CN(C)CC(=O)N[C@@H]1C=C[C@@H](CC(=O)NCc2ccc(Cl)cc2)O[C@@H]1CO	-29
112	COc1ccccc1CNC(=O)CCC1N=C2c3ccccc3N=C(SCc3ccc(F)cc3)N2C1=O (stereo not drawn)	-7
113	COc1ccc(-c2nc(C)c(CCNC(=O)c3ccco3)s2)cc1	i
114	O=C(NC1CC1)c1nc(C(=O)N2CCN(c3ccc(F)cc3)CC2)cs1	-24
115	CN(Cc1ccc(F)cc1)c1ccc2ccc(C(=O)N3CCC(N(C)C)C3)cn12 (stereo not drawn)	11
116	Cc1ccc(S(=O)(=O)Nc2cncc(C(=O)N3CCOCC3)c2)cc1	22
117	C[C@H](CO)N1C[C@H](C)[C@H](CN(C)Cc2ccncc2)OCCCC[C@H](C)Oc2ccc(NC(=O)Cc3ccccc3)cc2C1=O	93
118	CCn1c(C2CCN(Cc3ccc(N4CCCC4)cc3)CC2)nn(C)c1=O	5
119	Clc1ccc(CN2CCC3(COCc4cnc(-c5ccccc5)nc43)C2)cc1 (stereo not drawn)	-67
120	CC(C)CN1CCN(C(=O)NCCc2ccc(F)cc2)C(C)C1=O (stereo not drawn)	4
121	C(=C\c1cccc(N2CCNCC2)n1)/c1ccccc1	-78*
